VDR inh: inhibitors of human vitamin D receptor | Potency, µM, without a hit: max response, negative = inhibition, hits mostly inhibitors | VDR-SRC2-3 peptide fluorescence polarization, 2 h | 400,000 tested, 0.93% active; active = well fitted inhibition curve with a large enough effect; inconclusive = small, poorly fitted or top-dose-only effect, or another doubt; inactive = no such curve, though single readings can be large or run the other way; also: series mostly up to about 120 µM
Target sequence (P11473 whole entry, looked up): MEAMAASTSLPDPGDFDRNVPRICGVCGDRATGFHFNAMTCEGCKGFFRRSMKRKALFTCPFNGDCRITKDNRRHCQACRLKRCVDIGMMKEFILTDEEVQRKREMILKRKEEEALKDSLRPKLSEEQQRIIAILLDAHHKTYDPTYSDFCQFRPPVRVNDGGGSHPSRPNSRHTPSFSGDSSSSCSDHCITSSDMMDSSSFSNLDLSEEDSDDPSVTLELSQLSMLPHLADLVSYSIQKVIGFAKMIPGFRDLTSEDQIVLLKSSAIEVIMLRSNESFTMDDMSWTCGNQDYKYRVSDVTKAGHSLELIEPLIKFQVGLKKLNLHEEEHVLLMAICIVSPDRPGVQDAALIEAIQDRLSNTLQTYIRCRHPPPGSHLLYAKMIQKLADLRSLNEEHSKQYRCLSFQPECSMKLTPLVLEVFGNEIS
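The screen uses fluorescence polarization to detect compounds that interfere with recruitment of the SRC2-3 coactivator peptide to VDR; plates are read after 2 h at room temperature.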
* hit, by the source's call; ? = inconclusive; & = joins results of further samples; [ ] = remark or other dose. % is scaled to controls: 0 for no effect and ±100 for the full control effect; potency is read from the fitted curve at half-maximal effect. Only part of the results is shown. The share of hits here may be higher or lower than overall.

structure,VDR inh
Cc1nc(N2CCN(S(=O)(=O)c3ccc(Br)cc3)CC2)c2c(C)c(C)sc2n1,17%
Cn1cccc1/C=N/NC(=O)CSc1nc2ccccc2n1C,3%
CCCN(CCC)C(=O)Cn1c(=O)n(CCCC(=O)NCc2ccco2)c(=O)c2sccc21,0%
COc1ccc(NS(=O)(=O)c2cc(NC(=O)c3ccco3)ccc2N2CCCC2)cc1,10%
COC(=O)c1ccccc1NC(=O)c1ncoc1-c1ccco1,4%
CCN(CC)S(=O)(=O)c1cccc(C(=O)OCC(=O)N2CC(=O)Nc3ccccc32)c1,-3%
CC(=O)Nc1ccc(S(=O)(=O)NCCC(=O)N2CCC(Cc3ccccc3)CC2)cc1,-20%
CC(=O)N1CCc2cc(S(=O)(=O)NC(CC(C)C)C(=O)N3CCCC3)ccc21 (stereo unspecified),7%
Cc1cccc2cc(C#N)c(NCCNC(=O)NC3CCCCC3)nc12,-8%
COc1ccccc1N(CC(O)CN1C(C)CCCC1C)S(=O)(=O)c1ccccc1 (stereo unspecified),-10%
COc1ccc(-n2nnnc2SCC(=O)Nc2nnc(C)s2)cc1,-6%
CN(C)S(=O)(=O)N(CC(=O)N1CCOCC1)c1ccccc1,0%
CCN(CC)C(=O)CSc1nc2ccccc2c(=O)n1CCC(=O)N1CCN(c2ccccc2)CC1,-22%
Cc1ccc(S(=O)(=O)N2CCN(C(=O)C3CCCC3)CC2)cc1C,-8%
CC(=O)c1ccc(N/N=C(/C(N)=O)C2=NC(C)(C)Cc3ccccc32)cc1,0%
Cc1ccc(C(=O)COC(=O)CNS(=O)(=O)c2ccc(C)cc2)cc1,-20%
COc1cccc(C(=O)NCCCNC(=O)c2ccccn2)c1,-18%
O=C(/C=C/c1cc(Br)ccc1O)c1ccco1,25µM*
COC(=O)[C@@H](CC(C)C)N(Cc1ccccc1)S(=O)(=O)N(Cc1ccccc1)[C@@H](CC(C)C)C(=O)OC,-10%
COc1ccc(C2=Nn3c(nnc3-c3ccccc3Cl)SC2)cc1OC1CCCC1,-6%
COc1cccc(NC(=O)CSCc2n[nH]c(=O)[nH]2)c1,9%
COc1cccc(C2=CC(c3ccc(OC)c(OC)c3OC)n3nnnc3N2)c1 (stereo unspecified),-9%
Cc1cccc(CN2CCC(CNC(=O)CCNC(=O)Cn3ccc4ccccc4c3=O)CC2)c1,2%
S=c1[nH]nc(COc2ccc(Cl)cc2)n1-c1ccccc1,3%
CCOC(=O)c1ccccc1NC(=O)N1CCC(N2CCN(Cc3ccccc3)C(=O)C2=O)CC1,3%

Filtered by structure, the compounds so far with an NH in an aromatic ring.
structure,VDR inh
COc1cccc(NC(=O)CSCc2n[nH]c(=O)[nH]2)c1,9%
S=c1[nH]nc(COc2ccc(Cl)cc2)n1-c1ccccc1,3%

The listing continues:
structure,VDR inh
O=C(C1=C(O)C(=O)N(Cc2ccco2)C1c1cccc(O)c1)c1ccco1 (stereo unspecified),-23%
Cc1ccc2nc(Cl)c(C3CC(c4cccs4)=NN3C(=O)CCCC(=O)O)cc2c1 (stereo unspecified),4%
COc1cc(OC)cc(-c2cc3cc4c(cc3cn2)OCO4)c1,8%
CCN(C(=O)c1cc(S(=O)(=O)N2CCOCC2)cn1C)c1cccc(C)c1,7%
COc1ccccc1N1CCN(S(=O)(=O)c2ccc(-c3coc(C)n3)cc2)CC1,2%
COc1ccc(NC(=O)Nc2cccc(Cl)c2Cl)c(OC)n1,2%
CCOC(=O)C1CCN(Cc2cc(=O)oc3cc(C)ccc23)CC1,5%
CC(C)Oc1ccc(S(=O)(=O)N2CCCCC2)cc1NC(=O)CN1CCCC1c1cccs1 (stereo unspecified),-18%
Cc1c(C(=O)NCCSCc2ccco2)cccc1[N+](=O)[O-],8%
O=C(NCC1COc2ccccc2O1)c1cc(S(=O)(=O)N2CCOCC2)ccc1F (stereo unspecified),6%
COc1ccc2c(n1)Sc1nc3ccccc3nc1N2,30%[activator]
CCCc1cc(=O)[nH]c(SCC(N)=O)n1,-20%
CCc1ccc(NC(=O)C2C3C=CC(C4CC34)C2C(=O)O)cc1 (stereo unspecified),-4%
Cc1cc(C)cc(-n2c(SCC(=O)Nc3nnc(C)s3)nc3c([nH]c4ccccc43)c2=O)c1,-2%
O=C(c1ccccc1O)N1N=C(c2ccccc2)CC1(O)C(F)(F)F (stereo unspecified),17%
O=C(NC1CCCCCCC1)C1=COCCO1,5%
CCCC(=O)Nc1cc(OC)c(NC(=S)Nc2ccc(CC)cc2)cc1OC,-17%
C[C@]12C=C[C@H](O)CC1=CCC1C2CC[C@@]2(C)C1CCC21OCCO1 (stereo partly specified),6%
Cn1c(N)c(C(=O)COC(=O)/C=C/c2cccc(F)c2)c(=O)n(C)c1=O,-9%
COc1ccccc1CNc1ncnc2cc(Cl)ccc12,-2%
CCOc1ccc(CCNC(=O)c2ccc3c(=O)[nH]c4c(C(=O)NC(C)C)sc(=S)n4c3c2)cc1,-1%
CNc1nc(-c2ccccc2OC)nc2ccccc12,3%
Cc1ccccc1NS(=O)(=O)c1ccc(C(=O)N2CCN(c3ccccn3)CC2)cc1,-5%
Cc1cc2c(ncn2C)c(NS(=O)(=O)c2ccc(Cl)cc2)c1C,-4%
CCOC(=O)c1sc(NC(=O)C(CC)Sc2nc3ccccc3[nH]2)nc1C (stereo unspecified),8%

structure,VDR inh
Fc1ccc(-c2nnn(Cc3ccccc3Cl)n2)cc1,-2%
Cc1ccc(C(=O)O)cc1-c1ccc(C=C2C(=O)c3ccccc3C2=O)o1,-11%
NNC(=O)C1CC1c1ccccc1 (stereo unspecified),-15%
CNC(=O)/C(=C\c1ccc([N+](=O)[O-])cc1)NC(C)=O,-5%
Cc1ccc2c(c1)N(CCC(=O)NCCN1CCOCC1)C(=O)CO2,10%
CCOC(=O)/C=C1\CC(C(=O)OCC)Oc2ccccc21 (stereo unspecified),-3%&-1%
CCC(C)NC(=O)CS(=O)Cc1nc(-c2ccccc2C)oc1C (stereo unspecified),-13%
CC1(C)CC(=O)c2cc(-c3nc(-c4ccc(Cl)cc4)cs3)c(=O)n(-c3cccc(F)c3)c2C1,-18%
COC(=O)CSc1c(-c2ccccc2)c2cc(Cl)ccc2[nH]c1=O,-2%
Cc1cn2c(=O)cc(COc3ccc(Cl)cc3)nc2s1,4%
COCCCNc1nc2c(c(=O)[nH]c(=O)n2C)n1CCCc1ccccc1,9%
O=C(O)c1ccccc1-c1ccccc1C(=O)Nc1cccc(-c2nc3ccccc3o2)c1,-16%
O=C1CN(C(=O)c2ccc(S(=O)(=O)N3CCCCC3)cc2)C(c2ccc(F)cc2)c2cc(Cl)ccc2N1 (stereo unspecified),-18%
O=C(CSC1c2ccccc2C(=O)N1c1ccccc1)N1CCOCC1 (stereo unspecified),-8%
Cc1ccccc1OCc1nnc(SCC(=O)Nc2ccc3nc(SCC(=O)Nc4ccccc4)sc3c2)n1C,-22%
COc1ccc2oc3cc(C)[n+]([O-])c(-c4ccc(C)cc4)c3c2c1,-2%
Cc1cc(C(=O)N/N=C/c2ccc(-c3cccc([N+](=O)[O-])c3)o2)n[nH]1,6%
Cc1ccccc1NC(=O)c1ccc2nccnc2c1,0%
CCOC(=O)CSc1nc(C)nc2c1sc1nc(C)c(C(C)=O)c(-c3ccc(OC)cc3)c12,-11%
CCn1cc(C(=O)OCC(=O)Nc2cccc(C)c2)c(=O)c2ccc(C)nc21,-9%
CCCCN(C)C(=O)CCC(=O)Nc1ccc2nc(N3CCOCC3)cc(C)c2c1,37%[activator]
CC(C)[C@H](NC(=O)NCc1cccs1)C(=O)O,23%
O=C(COc1ccccc1O)c1cccs1,13%
COc1ccc(CCC(=O)N2CCN(c3ccc(OC)cc3)CC2)cc1,-3%
Cc1nn(-c2ccc(N3CCCCC3)nn2)c(C)c1CCC(=O)NCc1ccc(Cl)cc1,12%

VDR inh, hit marks shown above.
structure,VDR inh
O=C(/C=C/c1cc(Br)ccc1O)c1ccco1,25µM*

(list continues)
structure,VDR inh
COc1ccc(N(CC(=O)N2CCOCC2)S(C)(=O)=O)cc1OC,-10%
COc1ccc(OCCn2cncn2)cc1,-3%
N#Cc1ccc(NC(=O)COC(=O)c2ccc(F)c(S(=O)(=O)N3CCOCC3)c2)cc1,-6%
Cc1ccc2nc(-c3ccc(NC(=O)CN(c4ccccc4C)S(C)(=O)=O)cc3)sc2c1,1%
Nc1nnnn1/N=C\c1ccc(Cl)c([N+](=O)[O-])c1,-7%
Cc1oc2ccc(O)c(CN3CCOCC3)c2c1C(=O)c1ccc(Cl)cc1,-7%
O=C(NN=C1CCCC1)c1ccc(Br)cc1,-4%
O=C(NCc1cnc2ccccn12)C1CCC(=O)N(Cc2ccccc2F)C1 (stereo unspecified),7%
COc1ccc(NC(=O)C2Cc3ccccc3N2C(=O)c2ccccc2)cc1OC (stereo unspecified),9%
CC(C)CCc1noc(CN2CCC(CCN3CCCC3=O)CC2)n1,18%
NNC(=O)c1cn2ccccc2n1,-4%
CN1C[C@@H]2[C@@H]3C(=O)N(Cc4ccccc4)C(=O)[C@@H]3[C@](Cc3ccccc3)(C1=O)N2C(=O)c1ccc(Cl)c(Cl)c1,-6%
O=C1c2oc3ccccc3c(=O)c2C(c2ccccc2F)N1Cc1ccc2c(c1)OCO2 (stereo unspecified),25%
Cc1c(C(c2ccccc2)c2c(C)n(C)n(-c3ccccc3)c2=O)c(=O)n(-c2ccccc2)n1C,-9%
COc1ccc(NC(=O)COC(=O)CN2C(=O)NC(C)(C)C2=O)cc1,0%
O=C(/C=C/c1ccc(OC(F)F)cc1)OCC(=O)N1CCC(c2ccccc2)=N1,-8%
O=c1cc(NCC2CCCO2)[nH]c(=O)n1-c1ccc(Cl)cc1 (stereo unspecified),-9%
CC(C)NC(=O)c1noc2cc([N+](=O)[O-])ccc12,-9%
NS(=O)(=O)c1ccc(CCNCC(=O)NCc2ccccc2Cl)cc1,7%
Cc1ccc(S(=O)(=O)N2CCC(=O)N(C(COCc3ccc(Cl)cc3)C(C)C)CC2)cc1 (stereo unspecified),10%
CC(=O)c1cccc(NC(=O)C(C)OC(=O)CN2C(=O)NC(C)(C)C2=O)c1 (stereo unspecified),8%
O=C1NC(=Nc2ccccc2)SC1(CO)CO,-2%
O=C(CC(=O)OCc1ccccc1)OCc1ccccc1,-14%
O=C(CSc1nnc(CNC(=O)c2c(F)cccc2Cl)o1)NCc1ccc(F)cc1,?
COc1ccc(-c2cc(C(F)(F)F)n3nc(C(=O)N4CCCCC4)cc3n2)cc1OC,-12%

A stretch of the results above:
structure,VDR inh
COc1ccc(N(CC(=O)N2CCOCC2)S(C)(=O)=O)cc1OC,-10%
COc1ccc(OCCn2cncn2)cc1,-3%
N#Cc1ccc(NC(=O)COC(=O)c2ccc(F)c(S(=O)(=O)N3CCOCC3)c2)cc1,-6%

Remaining list, next part
structure,VDR inh
CC(=O)Nc1ccc(NC(=O)CSc2nnc3ccc(-c4ccccn4)nn23)cc1,-19%
CC(=O)Nc1ccc(/C=C/C(=O)c2ccc3c(c2)OCCO3)cc1,?
Cn1c2ccccc2c2nnc(SC3CCOC3=O)nc21 (stereo unspecified),-10%
CC(C)(O)C#Cc1ccc(CN2CCN(C3CCCC3)C(CCO)C2)cc1 (stereo unspecified),?
CCOC(=O)C1CCCN(S(=O)(=O)c2cccc3nsnc23)C1 (stereo unspecified),-5%
Cc1cccc(NC(=O)CSc2nnnn2C)n1,0%
Cc1ccsc1CNn1cnnc1SCc1ccccc1F,2%
c1ccc(-c2[nH]ncc2-c2ccnc3ccccc23)nc1,-6%
O=C(NCc1ccccc1)c1ccc(S(=O)(=O)NCc2ccco2)cc1,8%
CC[C@@H]1C/C=C\Cc2ccccc2[C@@H](C(=O)C[C@@H](O)CC(C)=O)OC1=O,12%
CCCSc1ncc(Cl)c(C(=O)Nc2c(C(=O)Nc3ccccc3)oc3ccccc23)n1,8%
COC(=O)c1c(NC(=O)C(C)(C)C)sc2c1C(C(=O)OC)CC2 (stereo unspecified),1%
O=C1[C@H](Cc2ccccc2)NCCCC[C@@H](c2ccc(Cl)cc2)N1Cc1ccccc1,-9%
O=C(CSc1nnc(-c2cccs2)o1)NCC1CN(Cc2ccccc2)CCO1 (stereo unspecified),-3%
CC1CCCC(NC(=O)CN2CCN(S(=O)(=O)c3cccs3)CC2)C1C (stereo unspecified),-17%
O=C(C(=O)N(Cc1ccccc1)Cc1ccccc1)c1c(-c2ccccc2)[nH]c2ccccc12,-12%
CCOC(=O)c1c(NC(=O)C2C3CCC(O3)C2C(=O)O)sc2c1CCC(CC)C2 (stereo unspecified),-5%
Cc1ccc(C2(C)NC(=O)N(CC(=O)Nc3ccccc3N3CCCC3)C2=O)cc1 (stereo unspecified),2%
COc1cc(OC)cc(-c2sc3ccccc3c(=O)c2I)c1,?
COC(=O)c1cc(NS(=O)(=O)c2ccc(N3CCCCC3)c([N+](=O)[O-])c2)cc(C(=O)OC)c1,66%[activator]
O=C(COC(=O)c1ccc(=O)[nH]c1)Nc1cccc(S(=O)(=O)N2CCOCC2)c1,9%
CCS(=O)(=O)N1CCN(Cc2ccncc2)CC1,8%
